Screens deposited in PubChem by National Center for Advancing Translational Sciences (NCATS).
StopGo FLuc = lowers the firefly signal of an FMDV 2A StopGo reporter; HEK cells with a luciferase reporter of 2A StopGo recoding; Potency, µM (highest dose often 57.5 µM), inactives show at the highest dose signal change, negative = less light; 120,000 compounds, 0.23% hits; active = well fitted falling curve with a large enough effect; inconclusive = small, poorly fitted or top-dose-only effect; inactive = no such curve, though single readings can be large or run the other way; note: nearly all actives have a fitted effect of over 60% in size; overnight with compound
2A Renilla = lowers the Renilla signal of an FMDV 2A StopGo reporter. 120,000 compounds, 0.32% hits. HEK cells with a luciferase reporter of 2A StopGo recoding. Potency, µM (titrated, usually from 57.5 µM), for inactives: at the top dose signal change, negative = less light; active means well fitted falling curve with a large enough effect; inconclusive means small, poorly fitted or top-dose-only effect; inactive means no such curve, though single readings can be large or run the other way; note: nearly all actives have a fitted effect of over 55% in size; overnight with compound
Numbers without * were called inactive; ? = inconclusive; & = joins results of further samples; [ ] = dose if it differs, or a comment. % is set by controls: 0 for no effect and ±100 for the full control effect; potency is the fitted concentration of half-maximal effect.

smiles | StopGo FLuc | 2A Renilla
Cc1ccc(Cn2c(=O)n(Cc3ccc(C(=O)NC4CCN(Cc5ccccc5)CC4)cc3)c(=O)c3ccccc32)cc1 | -12% | -10%
COc1cc(C2Nc3ccccc3-n3cc4c(=O)n(C)c(=O)n(C)c4c32)ccc1O (stereo not given) | 3% | 3%
O=C(NCC(=O)N1CCCC1)C(=O)Nc1cccc2[nH]ccc12 | 159%[activator] | 9%
Cc1cc(C(=O)NC2CCN(Cc3ccccc3)CC2)c2c(C)nn(-c3cccc(F)c3)c2n1 | 9% | -2%
CCn1c(=O)c2sccc2n2c(CCCC(=O)Nc3ccc(OC)c(OC)c3)nnc12 | -8% | -2%
CN(C)CCNc1oc(-c2ccc(S(=O)(=O)N3CCOCC3)cc2)nc1C#N | -12% | 45%[activator]
CC1CCCN(c2nc3c(c(=O)n(C)c(=O)n3C)n2CC(=O)c2ccc(Br)cc2)C1 (stereo not given) | 6% | -1%
COC(=O)c1cc(-c2ccc(F)cc2)nc2onc(-c3ccco3)c12 | 91%[activator] | -10%
CC1=C(c2ccc(C)c(C)c2)S(=O)(=O)N=C1N1CCC(C(=O)NCc2ccc(C)o2)CC1 | 4% | -2%
COc1ccc2[nH]cc(CCNC(=O)Nc3c(C)cccc3C)c2c1 | 1% | 16%

Next records:
smiles | StopGo FLuc | 2A Renilla
COc1ccc2c(C)c(CC(=O)NCCCn3ccnc3)c(=O)oc2c1C | 3% | -11%
CCc1nc(SCC(=O)c2c[nH]c3ccccc23)n[nH]1 | 52%[activator] | 2%
N=C(N)c1cccc(COc2ccccc2)c1 | 0% | -13%[1.06 µM]
COc1ccc(CCNC(=O)CCn2c(=O)c3ccccc3n(Cc3c(C)cc(C)cc3C)c2=O)cc1OC | -11% | -9%
O=C(COc1ncnc2ccc(Br)cc12)Nc1ccc(F)c(F)c1 | 5% | 1%
Cc1ccc2c(=O)cc(C(=O)Nc3onc4c3CC(C)CC4)oc2c1C (stereo not given) | 3% | 18%
CC(C)(C)c1ccc(C(=O)NC(Nc2ccc(Cl)cc2)C(Cl)(Cl)Cl)cc1 (stereo not given) | ? | ?
CCCc1c(C)nc2ccc(Cl)cc2c1-c1ccccc1 | -2% | 3%
COc1ccc2cc(COC(=O)c3nn(C)c(=O)c4ccccc34)ccc2c1 | ? | ?
Cc1ccc(C(=O)c2cn(Cc3ccc(F)cc3)c3nc(C)ccc3c2=O)cc1 | -10% | 3%

Sorted by number of heavy atoms (highest first): some entries from above
smiles | StopGo FLuc | 2A Renilla
COc1ccc(CCNC(=O)CCn2c(=O)c3ccccc3n(Cc3c(C)cc(C)cc3C)c2=O)cc1OC | -11% | -9%
Cc1ccc2c(=O)cc(C(=O)Nc3onc4c3CC(C)CC4)oc2c1C (stereo not given) | 3% | 18%
O=C(COc1ncnc2ccc(Br)cc12)Nc1ccc(F)c(F)c1 | 5% | 1%

(continued)
smiles | StopGo FLuc | 2A Renilla
O=C(Cc1cccs1)N(Cc1ccccn1)C1CC1 | 5% | 0%
Cc1ccc(C(C)(C)c2ccc(C(=O)O)cc2)cc1 | -10% | -10%
Cc1ccc(NC(=O)Nc2sc3nc4n(c(=O)c3c2C)CCC(C)CC4)c(Cl)c1 (stereo not given) | 4%&-9% | -5%&2%
C=CCSC1=N/C(=C\c2ccc(OC)cc2)C(=O)S1 | -3% | 5%
Cc1ccc(CNC(=O)CSc2ncc(-c3ccc(F)cc3)o2)cc1 | 3% | -14%
NCc1cccc(OCc2ccccc2)c1 | 39%[activator] | 11%
Cc1ccsc1C=Nc1ccc(C23CC4CC(CC(C4)C2)C3)cc1 | 0% | -3%
CCOc1cccc(C(=O)Nc2c(C(=O)c3ccc(OC)cc3)oc3ccccc23)c1 | -20% | 2%
FC(F)(F)c1cccc(NC(=S)N2CCSC2c2ccc(Br)cc2)c1 (stereo not given) | ? | ?
COc1ccc2[nH]c(C)c(CCNCc3ccc(F)cc3F)c2c1 | -8% | 28%

Further structures.
smiles | StopGo FLuc | 2A Renilla
O=C(CCn1c(=O)c2cccn2c2cccnc21)N1CCN(c2ccccc2)CC1 | 0% | -2%
COc1ccc(-c2c(C)nc(N)nc2-c2ccc(OC)cc2O)cc1 | 10% | -1%
COc1cc(NC(=O)NCCn2nnc3cc(S(=O)(=O)N(C)C)ccc32)cc(OC)c1 | -16% | -6%
C=CCNC(=O)NC(=O)CN(C)Cc1cc(C)on1 | 54%[activator] | 20%
CCOc1cc(C#N)c(NC(=O)c2ccc(OC)c(S(=O)(=O)N3CCN(c4ccccc4)CC3)c2)cc1OCC | 16% | 50%[activator]
COCCNc1nc2c(S(=O)(=O)c3ccccc3)nnn2c2ccc(Cl)cc12 | -1% | -8%
CCCCn1cc2c(c1-c1ccc(Cl)cc1)c(=O)n(C)c(=O)n2C | 0% | 8%
CCCNC(=O)/C(C#N)=C/c1c[nH]c2ccccc12 | 216%[activator] | 19%
CCc1ccc(S(=O)(=O)Nc2ccc3nc(N4CCN(CCC#N)CC4)cc(C(=O)O)c3c2)cc1 | -2% | -6%
NCCCCOCc1ccccc1 | 2% | 4%

Continued:
smiles | StopGo FLuc | 2A Renilla
CCOc1cc(C=O)ccc1OC(=O)c1cccc2ccccc12 | 0% | 3%
COc1ccc(CNC(=O)c2cc(-c3ccc(OC)c(OC)c3)nc3n[nH]c(-c4ccc(C)cc4)c23)cc1 | 3% | 9%
CC(C)C[C@H]1COc2cc(Br)ccc2S(=O)(=O)N1Cc1cn(Cc2ccc(C(F)(F)F)cc2)nn1 | 0% | -1%
CC(OC(=O)C1CC2CCCC(C1)C2=O)C(=O)c1ccc(Cl)cc1 (stereo not given) | -4% | 0%
COc1ccc(CCNC(=O)c2ccc3c(c2)nc2n3CCCCC2)cc1OC | 0% | -4%
COc1ccccc1CNC(=O)CCCn1c(=O)c2cccn2c2ccccc21 | 0% | 22%
CC(=O)N1CCc2cc(S(=O)(=O)CCC(=O)Nc3ccc(C)cc3Br)ccc21 | 6% | 16%
COCCCNC(=O)c1oc2c(c1C)-c1nn(Cc3ccc(Cl)cc3)cc1CC2 | -19% | 14%
Cc1ccc(-c2nc(CCNC(=O)C(=O)Nc3ccc(C)cc3C)cs2)cc1 | -7% | -8%
COC(=O)C1=C(c2ccccc2)c2ccccc2S(=O)(=O)N1CC(=O)Nc1ccccc1Cl | -11% | 31%[activator]

(cont.)
smiles | StopGo FLuc | 2A Renilla
CCCCNC(=O)C(Cc1ccccc1)NS(=O)(=O)c1ccc2c(c1)c(=O)n(C)c(=O)n2C (stereo not given) | 0% | 16%
CCCc1cnc2c(c1SCc1ccc(C(F)(F)F)cc1)c(=O)n(C)c(=O)n2C | -18% | -18%
Cc1[nH]c2ccccc2c1C(=O)C(=O)Nc1cccc(Cl)c1C | 20% | 106%[activator]
Brc1cccc(CNCc2ccco2)c1 | 14% | 9%
O=C(C1COc2cc(S(=O)(=O)NCc3ccc(Cl)cc3)ccc2O1)N1CCCCCC1 (stereo not given) | -19% | 133%[activator]
Cc1c(CNC2CCC(C)CC2)c(C(=O)O)c(C)n1Cc1ccc(Cl)cc1 (stereo not given) | -18% | 2%
N#Cc1ccc(C(=O)NC2CCCN(Cc3ccccc3)C2)cc1 (stereo not given) | -11% | 5%
CCCNC(=O)NC(=O)CSC1=Nc2ccccc2CS1 | 1% | -10%
COc1ccc(CCNc2oc(/C=C/c3cc(OC)c(OC)c(OC)c3)nc2C#N)cc1OC | -6% | 10%
Cc1cc(OCC(=O)N2CCC(c3nc4ccccc4o3)CC2)ccc1C(C)C | 3% | -3%

Next section.
smiles | StopGo FLuc | 2A Renilla
COCCc1ccc(OCC(O)CNC(C)C)cc1 (stereo not given) | -12% | -7%
C(#CCn1c2ccccc2c2ccccc21)CN1CCOCC1 | 0% | 17%
COCCCNC(=O)c1cc(-c2cccc(C)c2)nc2ccccc12 | 24% | 12%
O=C(NCCc1ccccc1)NCC(=O)N1CCc2ccccc21 | 49%[activator] | -1%
Cc1cc(C)cc(C(=O)Nc2ccc3oc(C)nc3c2)c1 | 231%[activator] | 14%
O=C(O)Cn1cc(C(C(=O)O)N2CCN(c3ccccc3)CC2)c2ccccc21 (stereo not given) | -3% | -16%
Cc1ccc(Cc2nc3ccccc3nc2SCC(=O)NCCC(C)C)cc1 | -1% | 0%
COc1ccc(N(C)S(=O)(=O)c2cccc(C(=O)Nc3nc4ccccc4[nH]3)c2)cc1 | -23% | ?
CC(C)C(NC(=O)c1ccc(CO)cc1)C(=O)O (stereo not given) | -1% | -6%[1.06 µM]
O=S(=O)(c1ccc2c(c1)oc1ccccc12)N1CCOCC1 | 26% | 24%

New compounds follow.
smiles | StopGo FLuc | 2A Renilla
CCN(c1ccccc1)S(=O)(=O)Cc1ccccc1Cl | 15% | 29%
COc1ccc(C2c3[nH]c4ccc(OC)cc4c3CCN2C(=O)Nc2ccccc2)cc1 (stereo not given) | ? | ?
O=C(Cc1cccc2ccccc12)Nc1ccc(Br)cc1C(=O)O | ? | ?
CCCCNc1ccc(-c2nc(-c3ccccn3)no2)cc1[N+](=O)[O-] | 136%[activator] | -2%
CCc1ccc(S(=O)(=O)c2nnn3c2nc(NCc2cccc(OC)c2)c2cc(Cl)ccc23)cc1 | -8% | -6%
CC(C)(CC(=O)O)CC(=O)Nc1cccc(C(F)(F)F)c1 | 0% | 0%
CC(=O)N1CCc2cc(S(=O)(=O)N3CCN(c4ccc(C)cc4)C(C)C3)ccc21 (stereo not given) | -28% | -13%
Cc1ccc2c(=O)cc(C(=O)NCC(c3cccs3)N3CCCC3)oc2c1 (stereo not given) | -14% | -17%
O=C1CN(C(=O)Cn2ccc3cc(Cl)ccc32)CCN1 | 4% | -9%
CCC(=O)N1CCc2cc(Br)cc(S(=O)(=O)N3CCCC(C(=O)NCc4cccc(OC)c4)C3)c21 (stereo not given) | 8% | 321%[activator]

Complete entries from above. Screens in order: StopGo FLuc | 2A Renilla
O=C(Cc1cccc2ccccc12)Nc1ccc(Br)cc1C(=O)O is entered as ? | ?
O=C(NCCc1ccccc1)NCC(=O)N1CCc2ccccc21 is entered as 49%[activator] | -1%
CCC(=O)N1CCc2cc(Br)cc(S(=O)(=O)N3CCCC(C(=O)NCc4cccc(OC)c4)C3)c21 (stereo not given) is entered as 8% | 321%[activator]

(more compounds)
smiles | StopGo FLuc | 2A Renilla
CCCCC(=O)Nc1ccc(C(=O)OCc2cc(=O)n3ccsc3n2)cc1 | 19% | 5%
COc1ccc(N(CC(=O)Nc2ccccc2C(=O)NCC2CCCO2)S(C)(=O)=O)cc1OC (stereo not given) | -11% | 13%
Cc1nnc(N2CCC(C(=O)N3CCCCC3)CC2)c2nn(-c3ccccc3)c(C)c12 | -11% | -10%
CCc1c(C)sc(NC(=O)c2c(F)c(F)c(F)c(F)c2F)c1C#N | -7% | -8%
C=CCNCc1cccc(OC)c1OCC | -2% | 2%
Cc1ccc(-c2nc3nc(C)cc(N4CCN(c5cccc(C)c5C)CC4)n3n2)cc1 | 14% | -10%
O=C(Nc1ccc(Cl)cc1Cl)C1CC2CCC1C2 (stereo not given) | 129%[activator] | 19%
CCn1c(C(=O)N2CCC(C(=O)NCCCOC)CC2)cc2sccc21 | -5% | -4%
CC(C)=CC(=O)Nc1ccc(Br)c(C)c1 | 223%[activator] | 17%
COc1ccc(NC(=O)CN(C)C(=O)c2nc(-c3ccccc3)oc2C)cc1 | 3% | -7%

Remaining list, next part.
smiles | StopGo FLuc | 2A Renilla
O=C(COc1ccc(Cl)cc1Cl)OCC(=O)c1ccccc1 | 2% | 7%
CC(C)(C)OC(=O)C(C#N)c1cnccn1 (stereo not given) | 3% | 6%
CCN(CC)C(=O)CSc1ncc(-c2ccc(Br)cc2)o1 | 220%[activator] | 25%
COc1ccc(OC)c(NC(=O)C2=C(C)C(=O)OC23CCCCCC3)c1 | -15% | 11%
COc1ccc(-c2cc(C(=O)N(C)CCO)c3ccccc3n2)cc1 | 59%[activator] | 27%
Cc1noc(/C=C/c2ccccc2F)c1S(=O)(=O)N1CCC(C(=O)NCc2ccco2)CC1 | -20% | -11%
CCc1ccc(C(=O)/C=C/c2ccc([N+](=O)[O-])cc2)cc1 | 59%[activator] | 5%
COc1cccc(C(=O)Nc2cccc(-c3cn4c(C)csc4n3)c2)c1OC | 85%[activator] | 7%
Cc1cc(C)c2oc(-c3cccc(NC(=O)CC(C)C)c3)nc2c1 | 20% | 4%
CC(C)(C)c1ccc(-c2nc(-c3ccc(Br)o3)no2)cc1 | -24% | 12%

Next results
smiles | StopGo FLuc | 2A Renilla
CCOCCOC(=O)c1nc2ccccc2nc1Nc1ccc(Cl)cc1 | 26% | -10%
CCOC(=O)c1sc(-c2ccc(OC)c(OC)c2)cc1NC(=O)c1ccco1 | 105%[activator] | 23%
Cc1c(-c2ccccc2)oc2c(C(=O)N3CCN(CC(=O)NC(C)(C)C)CC3)cccc2c1=O | 22% | 17%
CCOc1ccccc1CNC(=O)C1CCN(C(=O)N2CC(CC)Oc3ccccc32)CC1 (stereo not given) | -8% | -1%
Cc1ccc(NC(=O)CSc2ccc3c(c2)OCCCO3)c(Br)c1 | 3% | 8%
NC(c1ccc(F)cc1)c1ccccc1I (stereo not given) | -11% | 3%
CCN(C(=O)Cn1c(=O)n(Cc2ccc3c(c2)OCO3)c(=O)c2ccc(C(=O)NC3CCCCC3)cc21)c1cccc(C)c1 | -23% | 5%
Cc1cc2oc(=O)cc(CN3CCOCC3)c2cc1Cl | 6% | -3%
Cc1ccc(Cl)cc1NC(=O)CCCN1C(=O)CCn2nc(-c3cn(C)c4ccccc34)cc21 | -12% | -14%
COc1ccc(S(=O)(=O)NC(C)C)cc1-c1noc(C(C)(C)C)n1 | 9% | 238%[activator]
O=C(Nc1cc(=O)[nH]c2nc(C(F)(F)F)nn12)c1ccc(Cl)cc1 | 15% | 0%

Not all compounds are listed; count on the stated rates, not on these rows.
